AmpC inh no det: AmpC beta-lactamase inhibition, detergent-free assay; P00811; Potency, µM (titrated, usually from 28.7 µM), without a hit: at the top dose activity change, negative = inhibition; AmpC nitrocefin hydrolysis, absorbance 480 nm, no detergent; potencies from a single point are estimates; 1.8% of 71,000 active; active = falling curve, for most hits resting on a single point; inconclusive = weak or doubtful change; inactive = flat or rising curve; also: % of control where 0% means no effect; about half of the hits show no inhibition at the top dose; a quarter of the inactives give rising signals
Target sequence (P00811 whole entry, looked up): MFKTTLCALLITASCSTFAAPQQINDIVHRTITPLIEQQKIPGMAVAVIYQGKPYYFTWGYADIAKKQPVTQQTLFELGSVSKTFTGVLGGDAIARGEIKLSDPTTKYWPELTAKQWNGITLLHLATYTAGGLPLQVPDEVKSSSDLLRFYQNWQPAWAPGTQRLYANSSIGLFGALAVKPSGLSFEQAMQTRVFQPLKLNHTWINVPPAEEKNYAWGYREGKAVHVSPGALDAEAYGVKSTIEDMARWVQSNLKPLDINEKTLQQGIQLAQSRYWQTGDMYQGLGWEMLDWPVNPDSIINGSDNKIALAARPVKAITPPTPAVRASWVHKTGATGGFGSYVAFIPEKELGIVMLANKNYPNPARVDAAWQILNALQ
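AmpC in 20 mM phosphate buffer pH 7.0 was preincubated 15 min at room temperature with compounds. Nitrocefin (800 uM stock) was then added and hydrolysis followed at 480 nm every 20 s for 4 min.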
Starred values were filed as active, the others as inactive; [ ] = another dose, or the depositor's remark. Potency is read from the fitted curve at half-maximal effect. Some of the compounds tested; count on the stated rates, not on these rows.

SMILES | AmpC inh no det
CCN1C[C@]2(COC(=O)c3ccccc3N3C(=O)C[C@H](C)C3=O)CC[C@H](OC)[C@@]34[C@@H]5C[C@H]6[C@H](OC)[C@H]5[C@](O)(C[C@@H]6OC)[C@@](O)([C@@H](OC)[C@@H]23)[C@@H]14 | 66%
COC(=O)[C@@]1(Cc2ccc(F)cc2)[C@H]2c3cc(C(=O)N4CCCC4)n(Cc4ccc(OC(F)(F)F)cc4)c3C[C@H]2CN1C(=O)c1ccccc1 | 106%
COc1ccc(-c2nn3c(-c4ccco4)nnc3s2)cc1OC | 74%
CCCCCCOC(=O)C(C#N)c1nc2ccccc2nc1N1CCN(C)CC1 (stereo not drawn) | 137%
O=C(O)C1C(c2ccccc2)C(C(=O)OCCCO)C1c1ccccc1 (stereo not drawn) | -14%
CCOC(=O)c1ccc(NC(=O)N2CCN(Cc3cccc(F)c3)CC2)cc1 | 55%
CCN(CC)C(=O)CSc1nnc2sc3ccccc3n12 | 17%
CS(=O)(=O)N(CC(=O)NCC1CCCO1)c1cc(Cl)cc(Cl)c1 (stereo not drawn) | 18%
CS(=O)(=O)c1ccc(N)cc1 | 0%
Cc1ccccc1-c1cncnc1N1CCN(C)CC1 | 0%
O=C1CS/C(=N\C(=O)N2c3ccccc3Sc3ccccc32)N1 | -24%
CSC(N)=NCCC[C@@H](N)C(=O)O | -2%
CCc1c(C)nc2[nH]nc(-c3ccccc3C)n2c1=O | -9%
CCC12CC3CC(C1)CC(C(=O)O)(C3)C2 | -5%
Cc1onc(-c2ccccc2Cl)c1C(=O)Nc1cccc(-c2nc3ncccn3c2C)c1 | 120%
CN(C)/C=C1\C(=O)c2ccc(N(C)C)nc2CC1c1ccccc1 (stereo not drawn) | 91%
O=C1CCCN1C(=O)CCC(=O)N1CCCC1=O | -2%
CCOC(=O)c1c(C)[nH]c(C)c1C(=O)COC(=O)C1CCCN1S(=O)(=O)c1ccccc1F (stereo not drawn) | 53%
Cc1nc(N(C)C)c2sc(=S)n(C)c2n1 | 4µM*[single pt active]
c1ccc2c(-c3nc(C4CCCCC4)no3)cc(-c3ccncc3)nc2c1 | 77%
COc1ccc(-c2nc(CS(=O)(=O)CC(=O)NCCc3cc(OC)ccc3OC)c(C)o2)cc1 | 82%
CS(=O)(=O)c1ccc2nc(NC(=O)Oc3ccccc3)sc2c1 | 2%
Cn1c(=O)cnc2cnc(Oc3ccccc3)nc21 | 6%
c1nc2sc3c(c2c2nnnn12)CCC3 | -11%
COc1cc(OC)c(C#N)c(S(=O)Cc2ccccc2)c1 (stereo not drawn) | -1%
O=C(C1CCCN(Cc2cccnc2)C1)N1CCCCC1 (stereo not drawn) | -5%
Fc1cc(F)c2nc(N3CCCCC3)sc2c1 | 17%
COc1ccc(CNC(=O)c2cc(-c3ccccc3OC)on2)cc1 | -8%
Cn1c(COc2ccccc2)nnc1SCCN1CCOCC1 | -4%
CCNC(=O)c1c(O)c2ccccc2[nH]c1=O | 0%
CCNc1ncc2nc(-c3ccccc3)c(=O)n(CCOC)c2n1 | 12%
O=C(NCCN1CCOCC1)c1ccc(CS(=O)(=O)c2c(Cl)cccc2Cl)o1 | 2%
Cc1ccc(Cn2c(=N)n(CC(O)c3ccco3)c3ccccc32)cc1 (stereo not drawn) | -1%
Cc1cc(=O)[nH]c(SCC(=O)NCc2ccco2)n1 | 2%
CCn1c(SCC(=O)OC)nc2sc3c(c2c1=O)CCC3 | 59%
CCOc1ccc(C(CC(=O)O)NC(=O)COc2ccccc2)cc1 (stereo not drawn) | 0%
CSc1nsc(NC(=O)Cc2ccccc2)n1 | -10%
CCN1C(=O)CSc2ccc(C(=O)NC3CCCCC3)cc21 | 8%
CCOc1ccc2nc(NC(=O)c3ccc(S(=O)(=O)N4CCOCC4)cc3)sc2c1 | 77%
c1ccc(COc2ccc(Oc3nc(N4CCCCC4)nc(N4CCOCC4)n3)nn2)cc1 | 122%
Cc1ccc2[nH]c(=O)c(CN(Cc3ccc4c(c3)OCO4)Cc3nnnn3Cc3ccco3)cc2c1 | 29%
CC(=O)OC1c2c(ccc3ccc(=O)oc23)OC(C)(C)C1OC(=O)CC(C)C (stereo not drawn) | 117%
On1cnnc1-c1ccccc1 | -1%
O=c1c2[nH]c3ccc(Br)cc3c2ncn1CCCn1ccnc1 | 8%
CCOc1ncccc1C(=O)Nc1ccc(Cl)cc1 | 7%
CCOc1ccccc1Nc1nnc(C)c(=O)[nH]1 | -1%
COc1cc(C(=O)N2CCC(n3cnc4cc(F)ccc43)CC2)cc(OC)c1OC | 42%
Nc1nc(C(=O)O)c(N=Nc2ccccc2)c(=O)[nH]1 | -16%[5.75 µM]
CSCCC1NC2(C(=O)Nc3ccc(Cl)cc32)[C@@H]2C(=O)N(C3CCCC3)C(=O)[C@H]12 (stereo partly drawn) | 31%
CCN1CCN(C(=O)c2cc3c(-c4ccc(Cl)cc4)nn(C)c3s2)CC1 | 155%
O=C(O)c1cccc(N2CCCCS2(=O)=O)c1 | -4%
COc1ccc(N(Cc2cc3ccccc3[nH]c2=O)C(=O)C2CCCO2)cc1 (stereo not drawn) | -12%
O=C(CC(C(=O)N1CCc2ccccc21)n1ccnc1)NCc1cccnc1 (stereo not drawn) | -15%
COCCn1c(N)c(S(=O)(=O)c2cccs2)c2nc3ccccc3nc21 | -2%
Cc1ccc(-n2c(SCC(=O)Nc3ccc4c(c3)OCO4)nnc2-c2ccoc2C)cc1 | 25%
COc1cc(NC(=O)c2csc3c2CCCC3)ncn1 | 29%
O=C(CSc1ccc(Cl)cc1)Nc1ccc(N2CCN(C(=O)c3ccco3)CC2)cc1 | 12%
CS(=O)(=O)N1CCN(c2ccccc2NC(=O)c2ccc(-c3ccc(Cl)cc3Cl)o2)CC1 | -4%
CCc1ccc(NC(=O)CSc2nc3c(c(=O)n(C)c(=O)n3C)n2C)cc1 | -6%
CCCOc1ccc(C(=O)CCN2CCCCC2)cc1 | -19%

At a glance, part of the list above:
SMILES | AmpC inh no det
Cc1ccc2[nH]c(=O)c(CN(Cc3ccc4c(c3)OCO4)Cc3nnnn3Cc3ccco3)cc2c1 | 29%
CC(=O)OC1c2c(ccc3ccc(=O)oc23)OC(C)(C)C1OC(=O)CC(C)C (stereo not drawn) | 117%
On1cnnc1-c1ccccc1 | -1%
O=c1c2[nH]c3ccc(Br)cc3c2ncn1CCCn1ccnc1 | 8%

The listing continues:
SMILES | AmpC inh no det
COc1cc2c(cc1OC)[C@]13CC[N@+]4(C)CC5=CCO[C@H]6CC(=O)N2[C@@H]1[C@@H]6[C@@H]5C[C@]34O | 2%[5.75 µM]
CC1=CC2(C#N)C3(N=C(N)C2(C#N)C(c2ccccc2)N1)OCCO3 (stereo not drawn) | -10%
Cc1ccc2cc(CN(Cc3ccc(F)cc3)Cc3nnnn3C3CCCC3)c(=O)[nH]c2c1 | 78%
c1ccc(C2NCc3ccccc3-n3cccc32)cc1 (stereo not drawn) | 14%
O=C1OC(=O)c2cc([N+](=O)[O-])ccc21 | -4%
CN(c1ccccc1)c1ccc(/C=c2\s/c(=C(/C#N)C(=O)C(C)(C)C)n(Cc3ccco3)c2=O)cc1 | 10µM*
Cc1ccc(C(=O)Nc2c(C(=O)N3CCOCC3)cnn2-c2ccccc2)cc1 | 18%
CC1Cc2ccccc2N1C1=NS(=O)(=O)c2ccccc21 (stereo not drawn) | 6%
Cc1noc(C)c1-c1cncnc1NCc1ccccc1 | 12%
COc1cccc(NC(=O)N[C@@H](Cc2ccccc2)C(=O)O)c1 | 8%
COCCNC(C)C(=O)Nc1ccc(Br)cc1 (stereo not drawn) | -8%
COC(=O)CN1C(=O)C(O)(CC(=O)c2ccc(C)cc2)c2cc(Br)ccc21 (stereo not drawn) | 83%
CCN(CC)S(=O)(=O)c1ccc(NC2c3ccccc3C(=O)N2Cc2ccc3c(c2)OCO3)cc1 (stereo not drawn) | 4µM*[single pt active]
O=C1c2ccccc2C(=O)N1c1cccc(-c2nc3ccccc3o2)c1 | -3%
O=c1cccc2n1C[C@@H]1C[C@H]2CN2CCCC[C@H]12 | -5%
Cc1csc2ncc(C(=O)NCc3ccc4c(c3)OCO4)c(=O)n12 | 32%
Cc1cc(NC(=O)C2CC(c3ccc(F)cc3)=NO2)n(-c2ccccc2)n1 (stereo not drawn) | 28%
COc1cccc(Oc2coc3c(CN4CCOCC4)c(O)ccc3c2=O)c1 | 5%
Cc1ccc(-c2cc(-c3ccc(C)o3)nc(N)c2C#N)cc1 | -6%
CCN(CC(=O)NC1CCS(=O)(=O)C1)C(=O)C(c1ccccc1)c1ccccc1 (stereo not drawn) | 26%

Reprinted at random: 2 compounds from above, in no set order.
SMILES | AmpC inh no det
CCN(CC(=O)NC1CCS(=O)(=O)C1)C(=O)C(c1ccccc1)c1ccccc1 (stereo not drawn) | 26%
Cc1onc(-c2ccccc2Cl)c1C(=O)Nc1cccc(-c2nc3ncccn3c2C)c1 | 120%

The listing continues.
SMILES | AmpC inh no det
N#CC1=C(N)N2C(=C(C#N)C13CCN(Cc1ccccc1)CC3)Nc1ccccc12 | 18%
CC(C)=CCc1c(O)cc(O)c2c1O[C@H](c1ccccc1)CC2=O | -14%
CC(C)C1Cc2[nH]c(=O)c(C(=O)O)cc2CO1 (stereo not drawn) | -8%
O=S1(=O)N=C2CCCN2C(c2ccc(F)cc2)N1 (stereo not drawn) | 1%
NC(=S)c1ccc[n+]([C@@H]2O[C@@H](COP(=O)([O-])OP(=O)(O)OC[C@@H]3O[C@@H](n4cnc5c(N)ncnc54)[C@@H](OP(=O)(O)O)[C@H]3O)[C@@H](O)[C@H]2O)c1 | -2%
Cc1ccc(Cn2c(CN3CCOCC3)nc3c2c(=O)[nH]c(=O)n3C)cc1 | 2%
c1ccc(-c2nnc(-c3cccc(-c4nnc(-c5ccccc5)o4)c3)o2)cc1 | 5%
COc1ccc(-c2nc(CS(=O)CC(=O)NCC3CCCO3)c(C)o2)cc1 (stereo not drawn) | 4µM*[single pt active]
O=C(Nc1cccc(F)c1)c1cc(S(=O)(=O)N2CCC(C(=O)O)CC2)ccc1F | -6%
c1cc2cc(c1)C[n+]1ccc(c3ccccc31)NCc1ccc(cc1)CNc1cc[n+](c3ccccc13)C2 | -20%
CCn1c(SCCC#N)nnc1-c1ccncc1 | -5%
COc1cccc(OCCCCN2CCCCC2)c1 | 4%
COC(=O)c1ccc(COC(=O)c2[nH]c(C)c(C(C)=O)c2C)o1 | 12%
CCOc1ccc2oc(C(=O)OCC(=O)NC(=O)NC3CCCC3)c(C)c2c1 | 9%
O=C(O)COc1ccccc1O | -4%
C(=N/Nc1nnc2c(n1)[nH]c1ccccc12)/c1cccnc1 | 0%[5.75 µM]
COc1ccccc1N(CCC#N)C(=O)CSc1nc(-c2ccccc2)cn1N | 23%
CCCOc1cc(CC(=O)NCc2ccco2)ccc1OC | 5%
COc1ccc(Br)cc1CNC(=O)C1CCCN(c2nc3ccccc3o2)C1 (stereo not drawn) | 80%
Cn1c(=O)c2sccc2n2c(CCCC(=O)NCc3ccc4c(c3)OCO4)nnc12 | 0%

Individual results from the entries so far:
In AmpC inh no det, C(=N/Nc1nnc2c(n1)[nH]c1ccccc12)/c1cccnc1 is listed with 0%[5.75 µM]
In AmpC inh no det, COc1ccccc1N(CCC#N)C(=O)CSc1nc(-c2ccccc2)cn1N is listed with 23%
In AmpC inh no det, O=C(O)COc1ccccc1O is listed with -4%
In AmpC inh no det, COC(=O)c1ccc(COC(=O)c2[nH]c(C)c(C(C)=O)c2C)o1 is listed with 12%
In AmpC inh no det, c1cc2cc(c1)C[n+]1ccc(c3ccccc31)NCc1ccc(cc1)CNc1cc[n+](c3ccccc13)C2 is listed with -20%
In AmpC inh no det, Cn1c(=O)c2sccc2n2c(CCCC(=O)NCc3ccc4c(c3)OCO4)nnc12 is listed with 0%

The listing continues:
SMILES | AmpC inh no det
Cc1cc(C)nc(NC(=O)NS(=O)(=O)N2CCCCCC2)n1 | 3%
CC(=O)Cc1nsc(NC(=O)c2csc3c2CCCC3)n1 | 47%
CCC(C)=O | -4%
COC(=O)CCC(=O)OC | -4%
O=C(Nc1ccc(Cl)cc1)Nc1ccccc1C(=O)NCc1ccco1 | -23%
O=C(c1ccco1)N1CCn2c1nc1ccccc12 | 1%
CCOCC(O)CS(=O)(=O)c1ccccn1 (stereo not drawn) | -3%
CCCn1c(=N)n(CCOc2ccc(OC)cc2)c2ccccc21 | 14%
O=S(=O)(O)c1nc2ccccc2n1CCOc1ccccc1 | -8%
COc1ccc(N2C(N)=C(C#N)C(c3cccnc3)C3=C2CC(C)(C)CC3=O)cc1 (stereo not drawn) | 19%
O=C(CSc1nnc(-c2ccco2)n1-c1ccccc1)NCCc1ccccc1 | 43%
CCN(CC)c1nc(N)c2c(N)nc3c(c2c1C#N)CC(c1ccccc1)O3 (stereo not drawn) | 15%
COc1cc2c(cc1OC)-c1cc(OCCN3CCOCC3)nc(=O)n1CC2 | 34%
COC(=O)c1ccc(C(=O)OC)c(NC(=O)CCc2ccc(C)o2)c1 | 46%
Cc1cc(NS(=O)(=O)c2ccc(NC(=O)CCN3C(=O)c4ccccc4C3=O)cc2)no1 | 1%
CCOc1ccc(NS(=O)(=O)c2ccc3c(c2)oc(=O)n3C)cc1 | 3%
CC(C)c1cc(C(=O)O)on1 | -11%
O=C1CCCc2nc3nc4ccccc4n3cc21 | -1%
COc1cc2c(cc1O)-c1c(O)c(OC)cc3c1[C@H](C2)N(C)CC3 | 5%
Cc1cccc(C)c1[N+](=O)[O-] | -18%
O=C(O)c1ccccc1C(=O)NCC(O)COCC1CC=CCC1 (stereo not drawn) | 21%
CC(=O)NC1CC2CCCC(C1)N2S(=O)(=O)c1ccccc1 (stereo not drawn) | -12%
CC(C)CCOC(=O)C1[C@H]2C(=O)N(Cc3cccs3)C[C@]23C=C[C@H]1O3 (stereo partly drawn) | 24%
CCn1c(SCC(=O)NCC2CCCO2)nnc1-c1c[nH]c2ccccc12 (stereo not drawn) | 1%
CCOC(=O)CSc1nc2ccccc2c(=O)n1CC1CCC(C(=O)NCc2ccco2)CC1 (stereo not drawn) | 38%

Screening results as filed in PubChem BioAssay.
